CBX7 AlphaScr: CBX7 chromodomain binding inhibitors, primary screen, biochemical, AlphaScreen; Chromobox protein homolog 7 (Homo sapiens), O95931; AlphaScreen His6-CBX7 / biotin-H3K27me3 peptide binding; hits give low values; normalised signal (fraction of DMSO) (concentration not given with the values); 66,000 compounds, 1.1% hits; in the data active = normalised signal below about 0.5;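 also: 100 nL library stock added to about 20 µL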
Target sequence (O95931 whole entry, looked up): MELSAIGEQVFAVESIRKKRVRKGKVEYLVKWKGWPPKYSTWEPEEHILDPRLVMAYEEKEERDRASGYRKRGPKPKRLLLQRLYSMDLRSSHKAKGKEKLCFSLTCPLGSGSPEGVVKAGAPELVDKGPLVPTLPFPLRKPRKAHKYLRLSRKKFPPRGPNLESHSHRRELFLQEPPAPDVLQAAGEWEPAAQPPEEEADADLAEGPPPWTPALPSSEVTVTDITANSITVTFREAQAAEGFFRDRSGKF
CBX7 AlphaScr z-score: recorded beside CBX7 AlphaScr, whose call it bears; z-score; measured here: z-score of CBX7 signal; some inactives read as strong as hits; reference of the scale not given here;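 same signal on another scale; lower means less binding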
* = called active by the depositor. The list is partial, so the mix of outcomes need not match the whole.

SMILES	CBX7 AlphaScr	CBX7 AlphaScr z-score
CCC1Oc2ccccc2N(CC(=O)NC(C)c2ccccc2)C1=O (stereo not drawn)	0.92	-0.89
Cc1cc(C)c2c3c(sc2n1)C(=O)N(C)CC(=O)N3	1.3	3
CC(=O)N1CCc2cc(S(=O)(=O)NCCCN3CCN(c4ccccc4F)CC3)ccc21	1.3	1.9
CC(=O)c1nn(-c2cccc(Cl)c2)cc1C(=O)c1nc2ccccc2s1	0.98	-0.15
O=C(Nc1ccccc1-c1nc2ccccc2[nH]1)c1cc(Cl)cc(Cl)c1	1.1	0.84
CC(C)Cn1c(CNC(=O)Cc2ccccc2)nc2ccccc21	0.87	-1.5
COc1cccc(-n2c(Cc3cc(=O)[nH]c(=O)[nH]3)nnc2SCC(=O)c2ccccc2)c1	0.88	-1.9
Cc1csc2ncc(C(=O)Nc3cc(Cl)ccc3Cl)c(=O)n12	0.98	-0.54
CC1CCC(NC(=O)c2ccc3c(c2)N(Cc2cccc(F)c2)C(=O)c2ccccc2S3)CC1 (stereo not drawn)	1	0.17
Cc1nc2c(C(=O)NCCC(C)C)c[nH]n2c(=O)c1Cc1ccccc1F	1	0.41
Fc1ccc(C(CCCN2CCN3CCCC3C2)c2ccc(F)cc2)cc1 (stereo not drawn)	1	0.12
Cc1ccc(-c2cc(C(=O)Nc3nc(-c4ccc(F)cc4)cs3)c3ccccc3n2)s1	1.2	1.6
Cc1cccc(NC(=O)CSc2nnc(Cc3cc(=O)[nH]c(=O)[nH]3)n2-c2ccccc2)c1C	1	1.7
Cc1nc2ncnn2c(C)c1CCC(=O)Nc1cccc(C(F)(F)F)c1	0.99	-0.16
CCOC(=O)c1c(NC(=O)c2ccc(Cl)cc2)sc(C(=O)Nc2ccccc2C)c1C	1.1	2
CCOC(CNc1cc(C)nc2c(-c3ccccc3OC)c(C)nn12)OCC	0.99	-0.021
C=CCN1C(=O)c2ccccc2Sc2ccc(C(=O)NC3CCCC(C)C3C)cc21 (stereo not drawn)	1	0.46
CCc1ccc(C(=O)CC2(O)C(=O)N(Cc3ccc(Cl)cc3)c3ccccc32)cc1 (stereo not drawn)	0.42*	-7.3*
COc1cccc(CNC(=O)C2CCN(C(=O)N(C)C)CC2)c1	1.1	1.7
COc1cc(NC(=O)Cc2nn(C)c(=O)c3ccccc23)cc(OC)c1	1.3	3
COc1ccc(-c2nc(CS(=O)(=O)CC(=O)NCC3CCCO3)c(C)o2)cc1 (stereo not drawn)	1	0.47
CN(CC(=O)Nc1ccc(Cl)cc1)S(=O)(=O)c1cnc[nH]1	0.95	-1.6
Cc1ccc(Cl)cc1N1CCN(C(=O)CCCN2C(=O)CSc3ncccc32)CC1	0.96	-0.11
COCCCNC(=O)CN1C(=O)CC(C)(C)S(=O)(=O)c2ccccc21	1.1	2.3
O=C(c1cc2c(s1)-c1ccccc1OC2)N1CCN(C2CCCCC2)CC1	1	0.17
COc1ccc(-c2noc(CCC(=O)NCCN3CCOCC3)n2)cc1	1	-0.023
CCOC(=O)c1cn(CC)c2cc(N3CCN(C)CC3)c(F)cc2c1=O	1.1	0.73
CCOC(=O)c1c(C)n(-c2ccc(C)cc2)c2c1cc(O)c1ccccc12	0.96	-1.2
Cc1c(CNC(C)C23CC4CC(CC(C4)C2)C3)c(C(=O)O)c(C)n1Cc1ccccc1 (stereo not drawn)	0.94	-1.9
CCCCNC(=O)Cn1nc(Cc2cccnc2)c2ccccc2c1=O	1.1	1.9
Cc1cccc(-c2nc(CSCC(=O)N3CCc4ccccc4C3)c(C)o2)c1	0.94	-1.2
O=C(CN1CCOc2ccccc21)NCc1ccc2c(c1)OCO2	0.85	-0.91
COc1ccc(NC(=O)c2cnn3cccnc23)cc1	1.1	0.88
O=C(Cc1cn(Cc2cccc(Cl)c2)c2ccccc12)Nc1ccc(F)cc1	1.1	1.7
O=C(O)c1ccc(N2C(=O)CC(N3CCC(Cc4ccccc4)CC3)C2=O)cc1 (stereo not drawn)	0.98	-0.37
CCCCCCc1cc2cc(-c3csc(Nc4ccc(Cl)cc4Cl)n3)c(=O)oc2cc1O	0.9	-1.9
CCOCCCNC(=O)c1cc2c(-c3ccccc3F)nn(C)c2s1	0.9	-1.7
CCCCNC(=O)c1cnn2c(C)c(Cc3ccccc3Cl)c(C)nc12	0.9	-2.8
COc1cccc(-c2nc(CS(=O)(=O)CC(=O)Nc3cc(C)ccc3C)c(C)o2)c1	1	0.59
Cc1ccccc1-n1c(=O)cc(NCC2CCCO2)[nH]c1=O (stereo not drawn)	1.1	1.1

Full records from above. Order of values: CBX7 AlphaScr	CBX7 AlphaScr z-score
Profile of Cc1c(CNC(C)C23CC4CC(CC(C4)C2)C3)c(C(=O)O)c(C)n1Cc1ccccc1 (stereo not drawn) : 0.94	-1.9
Profile of Cc1csc2ncc(C(=O)Nc3cc(Cl)ccc3Cl)c(=O)n12 : 0.98	-0.54

Sorted by value in CBX7 AlphaScr z-score (descending): three from the list above
SMILES,CBX7 AlphaScr z-score
COc1ccc(-c2noc(CCC(=O)NCCN3CCOCC3)n2)cc1,-0.023
O=C(CN1CCOc2ccccc21)NCc1ccc2c(c1)OCO2,-0.91
CCOCCCNC(=O)c1cc2c(-c3ccccc3F)nn(C)c2s1,-1.7

Continuation:
SMILES	CBX7 AlphaScr	CBX7 AlphaScr z-score
COc1ccc2c(c1OC)C(=O)N(c1ncn[nH]1)C2	0.25*	-16*
CCOC(=O)c1cnc2c(C(F)(F)F)cccc2c1NCCO	1.1	3.3
CCOC(=O)c1cnc2c(C)cccc2c1Nc1ccc(C(=O)O)cc1	0.97	-0.34
O=C(Cn1nc(-c2ccccc2)nc1-c1ccccc1)Nc1ccc(Br)cc1	1.1	2.2
O=C(Nc1ccc(Cl)cc1)c1cc2nc(-c3cccs3)cc(C(F)(F)F)n2n1	1.1	3.8
COc1ccc(N(CC(=O)Nc2ccc(C)cc2C)S(=O)(=O)c2c(C)nn(C)c2C)cc1	1.1	0.54
CCOC(=O)c1sc2nc(C)n(CC(=O)Nc3cccc(Cl)c3)c(=O)c2c1C	1.1	2.6
Cc1nc(SCC(=O)Nc2ccc(S(N)(=O)=O)cc2)n[nH]1	0.94	-0.72
COc1cccc(-c2nnc(SCC(=O)N3CCOCC3)n2-c2ccccc2)c1	1.1	2.1
O=C(CN1CCOCC1)N1CCc2ccccc2C(c2ccccc2)C1 (stereo not drawn)	1	0.59
COc1ccccc1OCCSc1nnnn1-c1ccc(C)cc1	1.2	1.4
COCCNC(=O)c1cc(C)nn1-c1ccccc1	0.98	-0.49
CC(=O)Nc1nc2ccc(NS(=O)(=O)c3ccc(C)cc3)cc2s1	1.1	2.6
O=C(Nc1c(C(=O)c2ccc(Cl)cc2)oc2ccccc12)c1ccccc1F	1.2	0.66
COc1ccc(CCNC(=O)C2c3ccccc3C(=O)N3CCc4ccccc4C23)cc1OC (stereo not drawn)	0.94	-1.2
COc1ccc(NC(=O)CSc2nnc(Cc3c[nH]c4ccccc34)n2Cc2ccccc2)cc1	0.8	-0.96
Cc1onc(-c2c(Cl)cccc2Cl)c1C(=O)NCCCN1CCOCC1	1.1	0.081
Cc1cc(C)c(S(=O)(=O)NCc2ccc(C(=O)NCCc3ccc(Cl)cc3)cc2)c(C)c1	0.87	-0.57
COc1ccc(C(=O)CSc2n[nH]c(-c3ccncc3)n2)cc1	1	0.098
Cc1c(Cl)cccc1-n1ncnc1-c1ccc(F)cc1	1.3	5
Cc1nn(-c2ccc3ccccc3n2)c2c1C(=O)CC(C)(C)C2	0.89	-1.3
O=C(Nc1ccccc1Br)c1csc2c1CCCC2	1.1	1.5
Cc1ccc(-c2nc(CS(=O)(=O)CC(=O)NCc3cccnc3)c(C)o2)cc1	0.96	-0.085
CC1CN(C(C)(C)C)CCC1(O)c1ccccc1 (stereo not drawn)	1.1	1.4
CC(=O)Nc1ccc(C(=O)CSc2n[nH]c(-c3ccncc3)n2)cc1	0.66	-0.69
CCc1ccc(CN2C(=O)c3ccccc3C2C(=O)NCCc2ccc(OC)c(OC)c2)cc1 (stereo not drawn)	0.92	-0.82
COc1ccc(/C=C/C(=O)c2cc3cc(Br)ccc3oc2=O)cc1	0.89	-1.7
O=C(NCCCN1CCN(c2ccccc2F)CC1)C1CCC(=O)N1C1CCCC1 (stereo not drawn)	1	0.27
CN(CC(O)COCc1ccc2c(c1)OCO2)C1CCCCC1 (stereo not drawn)	1	0.66
Clc1ccccc1CN1C2=NCCN2c2ccccc21	1.1	2.4
COc1ccccc1NC(=O)c1c(NC(=O)c2cccc(F)c2)sc(-c2ccccc2)c1C	1.1	0.64
Cc1ccccc1Nc1c(-c2ccc(N(C)C)cc2)nc2ccccn12	0.78	-2.2
Cc1ccc(NC(=O)Nc2sc(NS(=O)(=O)c3ccccc3)nc2C)cc1	0.88	-0.13
COCC(=O)Nc1ccc2nc(N3CCN(c4ncccn4)CC3)cc(C)c2c1	1.1	4.1
OC1CCCc2c1[nH]c1ccc(Br)cc21 (stereo not drawn)	1.1	1.9
Cc1ccc(-c2cc3nc(C)cc(C(F)(F)F)n3n2)cc1	1.1	4.4
COc1ccc(C2(C(=O)NCC3(c4ccccc4)CCCOC3)CCOCC2)cc1OC (stereo not drawn)	1	0.11
Cc1ccc2c(c1)c(=O)c(S(=O)(=O)c1ccccc1)cn2CC(=O)Nc1ccccc1C	0.88	-2
CCOC(=O)Cc1csc(NC(=O)COc2cc(C)ccc2C(C)C)n1	1.1	4.8
CCCCSCCCNC(=O)C1CCN(Cc2nc(-c3cccc(Cl)c3)oc2C)CC1	1.4	3.2

The last five records of the section above lead into the next.
SMILES	CBX7 AlphaScr	CBX7 AlphaScr z-score
Cc1ccc(-c2cc3nc(C)cc(C(F)(F)F)n3n2)cc1	1.1	4.4
COc1ccc(C2(C(=O)NCC3(c4ccccc4)CCCOC3)CCOCC2)cc1OC (stereo not drawn)	1	0.11
Cc1ccc2c(c1)c(=O)c(S(=O)(=O)c1ccccc1)cn2CC(=O)Nc1ccccc1C	0.88	-2
CCOC(=O)Cc1csc(NC(=O)COc2cc(C)ccc2C(C)C)n1	1.1	4.8
CCCCSCCCNC(=O)C1CCN(Cc2nc(-c3cccc(Cl)c3)oc2C)CC1	1.4	3.2
Cc1cc(C)c(NC(=O)CN(C)S(=O)(=O)c2ccc3c(c2)n(C)c(=O)c(=O)n3C)c(C)c1	1.2	1.5
Cc1cccc(Oc2cc(C)nc3ccc(C)cc23)c1	0.67	-4.6
COc1ccc(-c2nc(C(=O)N3CCc4ccccc43)c(C)o2)cc1OC	1	0.44
COc1ccc(CNc2ccc3c(c2)nc(C)n3Cc2ccccc2)cc1	0.35*	-12*
COc1ccc(Cn2c(CCC(=O)Nc3ccc(C)c(Cl)c3)nc3cccnc32)cc1	1	1.3
Cc1c(C(=O)Nc2ccc(Cl)cn2)sc2ncn(CC(=O)N3CCOCC3)c(=O)c12	1.1	0.35
COc1cccc(-c2nn(C)c3sc(C(=O)Nc4cc(Cl)c(OC)cc4OC)cc23)c1	1	-0.13
Cc1ccc(NC(=O)CCc2c(C)nc3c(-c4ccc(F)cc4)c(C)nn3c2C)c(C)c1	1.2	2.3
CCOC(=O)c1cnc2c(OC)cccc2c1Nc1cccc(OC)c1	0.58	-0.47
Cc1onc(-c2ccccc2)c1C(=O)Nc1ccccc1C(C)C	0.92	-0.091
Cc1ccc(CCNC(=O)CN2C(=O)CSc3ccc(S(=O)(=O)N4CCOCC4)cc32)cc1	0.75	-2.9
COc1cc2nnc3c(c(-c4ccccc4)nn3-c3ccccc3)c2cc1OC	1	0.47
CC(C(=O)NCCc1ccc(Cl)cc1)C1Sc2ccccc2NC1=O (stereo not drawn)	1.1	1.1
O=C(NC1CCCCC1)c1nn2c(C(F)(F)F)cc(-c3ccccc3)nc2c1Br	1.1	0.56
Cc1ccc(-c2nn(CC(=O)Nc3ccccc3C)c(=O)c3ccccc23)cc1	1	0.83
O=C(C1CCCN(S(=O)(=O)c2cccs2)C1)N1CCN(c2cccc(Cl)c2)CC1 (stereo not drawn)	1	0.15
CCOc1ccccc1CN(CCc1ccc2c(c1)OCO2)Cc1ccccn1	0.069*	-1.6*
Cn1nc(-c2ccccc2F)c2cc(C(=O)NCCN3CCc4ccccc4C3)sc21	1.1	1.1
Cc1ccc2nc(-c3ccc(NC4=NS(=O)(=O)c5ccccc54)cc3)sc2c1	1.1	1.5
COc1ccc(C(=O)Nc2ccc(S(=O)(=O)Nc3nccc(C)n3)cc2)cc1OC	0.95	-1.2
COc1ccccc1CN(C)CCc1ccccn1	1	0.36
c1ccc(-c2csc(N3CCN(C(c4ccccc4)c4ccccc4)CC3)n2)cc1	1	0.13
O=C1CCc2cc(S(=O)(=O)NCCC(=O)N3CCCCC3)ccc2N1	1	0.052
O=C(NCCCN1CCCC1=O)c1cc(Nc2cccc(C(F)(F)F)c2)nc2ccccc12	1.2	6
CC(=O)Nc1cccc(NC(=O)c2cn(-c3ccc(F)cc3F)c(=O)c3ccccc23)c1	1	0.23
Cc1cccc(-n2ccnc2SCC(=O)Nc2nc3ccccc3s2)c1C	1.1	0.057
COc1ccc(-c2[nH]c(-c3cccc(OC)c3)nc2SCC(=O)Nc2ccc(F)cc2)cc1	0.87	-1.6
COc1ccc2nc(NC(=O)CSc3ccccn3)sc2c1	1.1	0.91
O=C(NCCc1ccccc1)c1cccc2c1C(=O)N(C1CCCCC1)C2	1	0.58
C=CCN(CC=C)S(=O)(=O)c1ccc(C(=O)Nc2nnc(CC)o2)cc1	0.064*	-10*
CC(C)NC(=O)c1ccc2nc(N3CCOCC3)sc2c1	1.1	1.4
COc1ccc(Cc2noc(/C=C/c3ccccc3Cl)n2)cc1OC	1.3	4
